Compound activity deposited in PubChem BioAssay by National Center for Advancing Translational Sciences (NCATS).
TRPML1 blocker = blocks the human TRPML1 channel; 390,000 tested, 0.02% active; Q9GZU1; TRPML1-inducible cells, Ca2+ dye fluorescence, FDSS; stronger effect = lower value; inhibition of EC80 agonist-evoked calcium signal; activity change, negative = inhibition, % (test concentration not listed); in the data active means activity change below about -50%; inconclusive means about -30% to -50%; inactive means above about -30%;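 further: stimulus is agonist 54-4 at its EC80 concentration; on the % scale 0 is the no-effect control and ±100 the full control effect; compound concentration not given in the record; the text of the record puts the active cut at -80%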
Target sequence (Q9GZU1 whole entry, looked up): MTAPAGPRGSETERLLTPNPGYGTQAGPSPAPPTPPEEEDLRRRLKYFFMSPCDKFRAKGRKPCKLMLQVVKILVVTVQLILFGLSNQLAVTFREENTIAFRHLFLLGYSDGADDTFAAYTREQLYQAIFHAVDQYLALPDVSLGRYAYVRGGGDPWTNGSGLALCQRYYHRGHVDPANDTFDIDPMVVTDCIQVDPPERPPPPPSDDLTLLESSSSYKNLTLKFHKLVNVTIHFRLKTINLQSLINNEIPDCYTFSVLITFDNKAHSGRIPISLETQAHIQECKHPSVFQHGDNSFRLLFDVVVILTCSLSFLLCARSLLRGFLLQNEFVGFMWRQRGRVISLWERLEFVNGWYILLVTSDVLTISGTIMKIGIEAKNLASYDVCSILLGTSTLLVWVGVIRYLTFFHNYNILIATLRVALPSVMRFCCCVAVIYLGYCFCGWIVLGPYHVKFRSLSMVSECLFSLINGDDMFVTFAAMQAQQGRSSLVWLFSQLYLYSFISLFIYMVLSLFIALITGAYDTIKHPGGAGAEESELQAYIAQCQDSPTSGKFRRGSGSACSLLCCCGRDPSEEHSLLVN
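Tet-induced TRPML1-DL cells loaded with Ca8 no-wash calcium dye were read kinetically on FDSS. Compound addition was followed by EC80 agonist 54-4 (4 uM final); inhibition was read over 110 s.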
TRPML1 agonist = agonists of human TRPML1 channel; Q9GZU1; TRPML1-expressing cells, Ca2+ dye fluorescence, FDSS; host cell line not named in the record; reference of the full effect not given here; activation, % (test concentration not listed); 410,000 tested, 0.12% active; in the data active = activation above about 50%; inconclusive = about 30% to 50%; inactive = below about 30%; further: 0% is about no effect; the text of the record puts the active cut at 80%
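Kinetic FDSS Ca2+ read in Tet-induced TRPML1-DL cells (ABD Ca8 dye plus quencher, 45-90 min RT loading): baseline, then compound, then 110 s agonist window; EC80 agonist 54-4 at 4uM final added afterwards for a 110 s antagonist window.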
gsp antagonist = antagonists of gsp mutant (McCune-Albright syndrome). gsp-mutant cells, cAMP HTRF, 30 min; control for the full effect not named in the record. Potency, µM (titrated, usually from 76.9 µM), inactives show top-dose activity change, negative = inhibition, usual class: inhibitors. 340,000 tested, 0.4% active. AID 624288; active = falling curve of any shape with a large fitted effect; inconclusive = falling curve, mostly with a smaller effect; inactive = flat or rising curve; cell line not stated here;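 further: intracellular cAMP measured with PDE inhibitor Ro 20-1724 present during compound exposure; potency means the concentration at half of the fitted maximal effect; on the % scale 0 is the no-effect control and ±100 the full control effect; nearly all actives have a fitted effect of over 65% in size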
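Cells, 2000/well, grown 16–24 h in DMEM 10% FBS with 0.5 mg/ml G418, then compounds plus […] (300 uM addition stock), 30 min at 37C. cAMP read by HTRF (cAMP-d2 and anti-cAMP antibody-K in lysis buffer) after 30 min RT.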
Menin MLL FP FL = menin-MLL binding inhibition, fluorescein peptide | 290,000 tested, under 10 active | FP activity change, % at 61.4 µM | Fluorescence polarization, fluorescein-MLL peptide displacement from menin; inconclusive = falling polarisation curve, or a change in total fluorescence; inactive = total fluorescence flat and polarisation flat or rising; no compound was filed as active; the % refers to the polarisation; negative = inhibition;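 further: % of control where 0% means no effect; inhibitors lower the polarisation; unlabelled MLL peptide was the positive control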
ClpP mod = qHTS Assay for Activators of ClpP; Potency, µM (highest dose often 57.5 µM), without a hit: at the highest dose activity change, negative = active; AID 651965, 2013; purified B. subtilis ClpP, FRET peptide cleavage, 20 min; 340,000 tested, 1.9% active; ATP-dependent Clp protease proteolytic subunit (Bacillus subtilis (strain 168)), P80244; active = well fitted falling curve with a large enough effect; inconclusive = small, poorly fitted or top-dose-only effect; inactive = no such curve, though single readings can be large or run the other way; further: potency means the concentration at half of the fitted maximal effect; the source files actives as falling curves though it sought activators and does not explain the sign; nearly all actives have a fitted effect of over 65% in size; many hits overshoot -100%
Target sequence (P80244 whole entry, looked up): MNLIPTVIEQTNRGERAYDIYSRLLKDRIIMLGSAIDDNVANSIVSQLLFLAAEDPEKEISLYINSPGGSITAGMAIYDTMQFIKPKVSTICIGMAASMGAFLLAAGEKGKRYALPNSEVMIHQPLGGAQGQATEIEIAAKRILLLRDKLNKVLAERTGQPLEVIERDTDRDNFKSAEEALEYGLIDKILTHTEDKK
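Buffer: 100 mM Tris/HCl pH8, 100 mM KCl, 0.05% low protease BSA, 2.5% glycerol, 0.01% Tween-20. ClpP 10 microg/mL final; 20 min RT; delta FRET normalized to ADEP and DMSO controls.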
gsp ag = gsp mutant agonism. Potency, µM (series often up to 76.9 µM), for the others: top-dose activation (cAMP increase), actives largely listed as activators. 340,000 tested, 0.13% active. gsp mutant cells, cAMP HTRF, 30 min; control for the full effect not named in the record. AID 624287; active = well fitted activation curve with a large enough effect; inconclusive = small, poorly fitted or top-dose-only effect, or another doubt; inactive = no such curve, though single readings can be large or run the other way; cell line not stated here;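 further: phosphodiesterase inhibitor Ro 20-1724 added with compounds to block cAMP breakdown; potency means the concentration at half of the fitted maximal effect; nearly all actives have a fitted effect of over 60% in size; about a fifth of the inactives were tested at one dose only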
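Cells stably selected in G418 were plated at 2000/well, grown 16-24 hr, then given compounds in DMSO with the PDE inhibitor […] (300 uM solution added) for 30 min at 37C; cAMP was read by HTRF.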
* marks the source's active call; other numbers are inactive results; ? = inconclusive; nt = not tested or not shown; [ ] = another dose, or the depositor's remark.

SMILES	TRPML1 blocker	TRPML1 agonist	gsp antagonist	Menin MLL FP FL	ClpP mod	gsp ag
Cc1cc2cccc(C)c2nc1SCC(=O)N(C)c1nc(-c2ccccc2)cs1	-1	-0.6	5%	1.6	-0.1%	-13%
CC(=O)c1cccc(NC(=O)COc2ccccc2)c1	-9	-0.3	2%	3.1	-2.8%	-4%
CC(NC(=O)c1ccc(Br)s1)C1CCCO1 (configuration not stated)	4	0.1	8%	-1.6	-0.5%	19%
CC(=O)Nc1ccc(NC2=CC(=O)c3ccccc3C2=O)cc1	2	1.2	-7%	0.1	nt	11%
CCCCN(CCCC)C(=O)c1cc2ccccc2c(=O)o1	-3	-0.2	4%	1.0	-5.1%	-4%
CCC(C)c1ccc(O)c(NC(=O)c2cccnc2)c1 (configuration not stated)	-1	1.9	5%	5.5	0.3%	4%
CN(C)S(=O)(=O)c1cccc(NC(=O)C2Cc3ccccc3CN2C(=O)c2ccco2)c1 (configuration not stated)	-3	-0.8	-3%	-1.5	nt	16%[15.4 µM]
CCCc1noc2c1C(c1ccoc1)C(C#N)=C(N)N2 (configuration not stated)	12	0.7	6%	-0.2	-2.1%	0%
Cc1nc(SCC(=O)NCc2ccc3c(c2)OCO3)c(C#N)c2c1CCCC2	9	-1.1	?	0.2	-0.4%	0%
CCN(CC)c1nc2c(s1)C(=O)NCCC2	8	1.1	4%	-1.6	-2.8%	14%
O=C(O)C(C(=O)/C=C/c1ccco1)=C1SCCS1	1	-0.6	-3%	?	1.0%	0%
Cc1ccc(C(C)n2cc(C(=O)NCc3ccncc3)nn2)cc1 (configuration not stated)	1	-0.3	13%	-2.7	-0.7%	-14%
CCn1c(SCC(=O)N2CCC(C)CC2)nnc1-c1ccccc1O	12	0.0	nt	nt	0.8%	nt
COc1ccc(-n2c(SCC(=O)NCCCN3CCCC3=O)nnc2C(C)N2CCCCC2)cc1 (configuration not stated)	-5	-0.4	0%	-1.2	-1.7%	-12%
COc1ccc(C(=O)N2CCN(c3ccccn3)CC2)cc1[N+](=O)[O-]	26	0.4	-3%	2.3	nt	-10%[15.4 µM]
O=[N+]([O-])c1ccccc1/C=N/N1CCN(c2ccncc2S(=O)(=O)N2CCCCC2)CC1	19	2.1	-16%	1.8	2.9%	8%
Cc1cc(C)nc(/N=C(\N)Nc2ccc(C)c([N+](=O)[O-])c2)n1	-9	0.2	0%	-2.3	-2.8%	-28%
COc1ccc(-n2c(SCC(=O)Nc3ccc(C(N)=O)cc3)nc3ccccc3c2=O)cc1OC	-4	-0.1	-17%	12	nt	-44%[inhibitor]
O=C(OC(C(=O)NC1CCCC1)c1ccccc1F)c1ccco1 (configuration not stated)	15	1.3	-10%	4.6	-1.4%	3%
CCOc1ccc2[nH]c(=O)c(CN(Cc3ccco3)C(CC)c3nnnn3Cc3ccccc3)cc2c1 (configuration not stated)	13	3.1	?	?	?	?
CCCCNC(=O)Cc1coc2ccc3ccccc3c12	18	1.1	-19%	-1.0	-3.9%	-24%
CN1CCN(c2ccccc2NC(=O)c2ccc(Br)o2)CC1	-19	1.9	8%	1.9	-1.5%	0%
COc1ccc(NC(=O)CSc2nc(N)cc(=O)[nH]2)cc1S(=O)(=O)N1CCCCC1	16	0.4	6%	nt	-1.1%	-4%[15.4 µM]
COc1ccc(C2CC(=O)c3cc(-c4nc(-c5cccc([N+](=O)[O-])c5)cs4)c(=O)n(-c4ccc(F)cc4)c3C2)cc1 (configuration not stated)	30	-0.5	nt	nt	1.1%	nt
COc1ccc(C(=O)Nc2ccc(N3CCCC3)cc2)cc1OC	17	-0.6	-14%	-1.8	nt	1%

Later entries
SMILES	TRPML1 blocker	TRPML1 agonist	gsp antagonist	Menin MLL FP FL	ClpP mod	gsp ag
CCc1nnc(NS(=O)(=O)c2ccc(NC(=S)NC(=O)c3cccs3)cc2)s1	2	-0.3	?	3.9	nt	-18%[15.4 µM]
CCCC(=O)NC(=S)Nc1ccc(NC(=O)c2cccs2)cc1	-1	0.1	-9%	2.1	-0.1%	0%
COc1ccc(C2(c3ccc(OC)cc3)NC(=O)N(CC(=O)NCC(F)(F)F)C2=O)cc1	23	0.3	-3%	-1.0	nt	7%[15.4 µM]
CC(C)(C)Cc1nnc(NC(=O)CCC2CCCCC2)s1	-5	0.7	3%	1.3	-0.1%	21%[15.4 µM]
O=C(CSc1nc2c([nH]c3ccccc32)c(=O)n1-c1ccc(Cl)cc1)NCc1ccccc1	-2	2.3	nt	nt	-7.2%	nt
COCCN(C(=O)CSCC(=O)Nc1cccc(C)c1)c1c(N)n(Cc2ccccc2)c(=O)[nH]c1=O	8	-1.1	15%	nt	-1.2%	1%
CN1CCN(CCCNC(=O)c2ccc3nc(Cc4ccccc4)oc3c2)CC1	-12	-0.5	nt	nt	-4.3%	nt
CON(c1nc(Cl)nc(N(C)C)n1)S(=O)(=O)c1ccccc1Cl	-9	-0.3	-22%	5.6	-3.9%	-32%[inhibitor]
COc1ccc(-c2nc3n(n2)C(c2ccccc2F)C(C(=O)Nc2cccnc2)=C(C)N3)cc1OC (configuration not stated)	-2	-0.9	nt	nt	-9.9%	nt
O=C(NNC(=O)NC1CCCCC1)NC1CCCCC1	-2	-0.2	9%	-1.3	1.0%	?
CCCCCCCCNCCS(=O)(=O)NCc1ccc(OC)cc1	-3	0.0	6%	nt	1.5%	nt
Cc1ccc(N(C)S(=O)(=O)c2ccc(-c3ccc(=O)[nH]n3)s2)cc1C	11	0.3	6%	nt	1.0%	9%
c1coc(-c2nnc3sc(C4CCCCC4)nn23)c1	-9	2.7	7%	-2.7	0.3%	1%
Cc1nn(-c2ccccc2)c(C)c1/C=C/C(=O)OC(C)C(N)=O (configuration not stated)	14	1.7	11%	5.9	-0.7%	22%
CC[n+]1ccc2cc(OC)c(OC)cc2c1Cc1ccc(OC)c(OC)c1	16	-0.4	9%	-1.5	nt	-2%[15.4 µM]
Cc1ccc(/C=C2\SC(=S)N(c3cccnc3)C2=O)cc1	-13	-0.7	10%	0.9	0.6%	14%
O=C(CCCCn1c(=O)c2ccccc2n(CC(=O)Nc2cccc(C(F)(F)F)c2)c1=O)NCc1ccc2c(c1)OCO2	4	-0.6	nt	nt	?	nt
Cc1cccc(C)c1NC(=O)C1CCCN1C(=O)OC(C)(C)C (configuration not stated)	-12	0.7	3%	-0.8	nt	-8%[15.4 µM]
CC(NC(=O)C12CC3CC(C)(CC(C)(C3)C1)C2)c1ccncc1 (configuration not stated)	-4	-0.1	4%	-2.4	-1.3%	-7%[15.4 µM]
Cn1cccc1C(=O)OCC(=O)Nc1ccc2c(c1)OCO2	5	-0.7	4%	5.3	nt	-2%[15.4 µM]
CCCCN1CNC(=S)N(CCc2ccc(OCC)c(OCC)c2)C1	6	0.3	-5%	1.1	nt	3%[15.4 µM]
COc1cc(/C=C(/C#N)C(=O)Nc2ccc(C)cc2)ccc1Oc1nc(Cl)ncc1F	-15	0.6	8%	nt	-1.4%	2%
C#CCN(C[C@H]1[C@H](OC(=O)NCCCCCC)[C@H](OC(=O)NCCCCCC)C[C@H]2C(=O)N(c3ccccc3)C(=O)[C@@H]12)S(=O)(=O)c1ccc(C)cc1	-3	1.2	nt	nt	-2.9%	-33%[inhibitor]
COc1ccc(OCc2cnc(Cl)s2)cc1	4	-1.0	-8%	1.2	1.0%	-26%
Cc1ccccc1NC(=O)CCC(=O)OCC(=O)c1cccc([N+](=O)[O-])c1	0	-0.3	-1%	2.5	0.7%	-1%[15.4 µM]

(cont.)
SMILES	TRPML1 blocker	TRPML1 agonist	gsp antagonist	Menin MLL FP FL	ClpP mod	gsp ag
CC(=O)Nc1ccc(NC(=O)CS(=O)(=O)c2cn(CC(=O)N3CCCC3)c3ccccc23)cc1	-12	0.1	14%	nt	-0.5%	4%[15.4 µM]
CCC(=O)Nc1ccc(-c2nc(-c3ccccc3)n(CC(=O)N3CCCCC3)n2)cc1	-8	-0.2	-9%	-2.0	-5.5%	-57%[inhibitor]
Cc1ccn2c(-c3csc(NCc4ccccc4)n3)c(C)nc2c1	-5	-0.1	40µM*	2.9	?	-40%[inhibitor]
Cc1ccc(NCC(=O)Nc2ccc(F)c(Cl)c2)cc1S(=O)(=O)N1CCOCC1	-2	0.0	nt	nt	-4.1%	8%
O=C(NCc1ccccn1)Nc1cccc(F)c1	7	0.1	8%	2.8	-1.0%	17%
CC1CCCCC12NC(=O)N(CC(=O)N1CCN(C(=O)c3cccs3)CC1)C2=O (configuration not stated)	8	-0.5	4%	nt	0.2%	-27%
COc1ccc(NC(=O)Cn2c(-c3ccc(F)cc3)cc(C(C)=O)c2C)c(OC)c1	19	2.1	nt	nt	0.3%	nt
CNC(=S)N(CCc1c(C)[nH]c2ccccc12)Cc1cccnc1	-21	0.3	-3%	0.1	nt	-48%[inhibitor]
Cc1csc(NC(=O)c2cc(=O)[nH]c3ccc(S(=O)(=O)N4CCOCC4)cc23)n1	-7	-0.4	3%	0.7	3.6%	13%
CC(C)(C)N(Cc1ccccc1)C(=O)COC(=O)c1ccc(Br)o1	-6	1.3	1%	nt	-2.4%	-37%[inhibitor]
Nn1c(COc2cccc(Br)c2)nnc1SCC(=O)N1CCc2ccccc2C1	6	-1.0	?	2.0	-2.4%	15%
O=C(COc1ccc2c3c(c(=O)oc2c1)CCC3)N1CCCCC1	26	-0.6	-7%	nt	0.0%	10%[15.4 µM]
CCOc1ccc(OCC)c(NC(=O)CN(c2ccc(C)cc2)S(=O)(=O)c2c(C)n[nH]c2C)c1	18	-0.2	nt	nt	1.8%	nt
Cc1cc(Nc2ccccc2Cl)n2nc(-c3ccco3)nc2n1	42	0.4	nt	nt	0.9%	nt
Cc1noc(C)c1S(=O)(=O)Nc1ccc2c(c1)C(=O)N([C@H](C)CO)C[C@@H](C)[C@@H](CN(C)Cc1ccc3c(c1)OCO3)O2	24	-0.9	0%	nt	-8.5%	nt
CCN(CC)S(=O)(=O)c1cccc2cc(C(=O)O)c(O)cc12	6	-0.8	3%	0.8	-2.6%	27%
COc1cc(-c2cc(=O)c3c(C)cc(O)cc3o2)cc(OC)c1OC	-4	0.9	8%	nt	-17%	16%
CCn1cc(C2=NC(c3ccccc3)CO2)c2ccccc21 (configuration not stated)	3	-0.2	-9%	-0.6	-28%	3%
CCOC(=O)c1cc(-c2ccccc2)sc1NC(=O)c1cc(OC)c(OC)c(OC)c1	-14	-0.3	14%	6.7	?	-4%[15.4 µM]
Cc1ccc(C)c(NC(=O)c2cc(S(=O)(=O)NCCC3=CCCCC3)ccc2F)c1	2	2.5	nt	nt	22%	nt

Not a hit list; overall some 2.1% were active at least once.
